Screening results from PubChem BioAssay.
AmpC nodet inh: Promiscuous and Specific Inhibitors of AmpC Beta-Lactamase (assay without detergent) | P00811 | AmpC nitrocefin hydrolysis, absorbance 480 nm, no detergent; potencies from a single point are estimates | Potency, µM (series often up to 28.7 µM), inactives show at the top dose activity change, negative = inhibition | 71,000 compounds, 1.8% hits | AID 585, 2007; active = falling curve, for most hits resting on a single point; inconclusive = weak or doubtful change; inactive = flat or rising curve; also: % of control where 0% means no effect; about half of the hits show no inhibition at the top dose; a quarter of the inactives give rising signals
Target sequence (P00811 whole entry, looked up): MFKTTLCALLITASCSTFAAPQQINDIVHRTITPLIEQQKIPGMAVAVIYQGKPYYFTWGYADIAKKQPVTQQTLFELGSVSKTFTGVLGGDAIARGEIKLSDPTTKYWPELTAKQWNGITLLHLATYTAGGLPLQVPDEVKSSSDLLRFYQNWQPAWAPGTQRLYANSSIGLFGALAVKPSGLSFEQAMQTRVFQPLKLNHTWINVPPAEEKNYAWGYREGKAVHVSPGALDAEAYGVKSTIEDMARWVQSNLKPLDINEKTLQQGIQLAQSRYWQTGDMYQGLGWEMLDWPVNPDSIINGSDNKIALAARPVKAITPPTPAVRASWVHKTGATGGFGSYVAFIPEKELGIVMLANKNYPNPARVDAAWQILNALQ
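AmpC in 20 mM phosphate buffer pH 7.0 was preincubated 15 min at room temperature with compounds. Nitrocefin (800 uM stock) was then added and hydrolysis followed at 480 nm every 20 s for 4 min.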
* hit, by the source's call; & = joins results of further samples; [ ] = another dose, or the depositor's remark. Potency is read from the fitted curve at half-maximal effect. Only part of the results is shown. The share of hits here may be higher or lower than overall.

Compound	AmpC nodet inh
Cc1onc(-c2ccccc2Cl)c1C(=O)Nc1ccc(CN2CCCC2)cc1	10%
Cc1c(NC(=O)Cn2cnc3c(=O)n(C)c(=O)n(C)c32)cccc1-c1nc2ccccc2o1	74%
CC(=O)NC1C(=O)N=C(SCC(=O)NCc2ccccc2)NC1=O (centres undefined)	-8%
Cn1ncc2c1ncn1c(-c3ccccc3Cl)nnc21	9%
Cc1ccc(C2C(C#N)=C(N)Oc3cc4c(cc32)OCO4)cc1 (centres undefined)	-5%
COc1ccc(-c2nc3ccccc3c(=O)n2CCCn2ccnc2)cc1	21%
CCOc1ncccc1C(=O)OCc1cc(=O)n2c(n1)sc1ccccc12	9%
Cc1c(Br)cc(-c2nnco2)cc1Br	5%
COc1ccc(S(=O)(=O)N2CCC(C(=O)N3CCOCC3)CC2)cc1OC	4%
COc1ccc2nc(C)cc(C(=O)O)c2c1	-3%
CCC(c1nnc(SCC(=O)NCC2CCCO2)n1Cc1ccccc1)N(C)C (centres undefined)	23%
CCOP(=O)(c1ccc(N(C)C)cc1)C(O)c1ccccc1OC (centres undefined)	28%
COc1ccc(CNC(=O)CCn2c(=O)oc3ccccc32)cc1	1%
O=C(O)CCCNS(=O)(=O)c1cccs1	0%
CCOc1ccc2[nH]c(=O)c(CN(Cc3nnnn3Cc3ccccc3)CC3CCCO3)cc2c1 (centres undefined)	83%
c1ccc2[nH]c(-c3cscn3)nc2c1	17%
CCOC(=O)N1CCN(S(=O)(=O)c2ccc(C(=O)Nc3sc4c(c3C#N)CCC4)cc2)CC1	54%
COc1ccccc1N1CC(C(=O)OCC(=O)c2ccc(F)cc2)CC1=O (centres undefined)	44%
N#CC1=C(N)OC2=C(C(=O)CCC2)C12CCC1(CC2)OCCO1	-7%
CCOC(=O)N1CCN(C(=O)Nc2ccc3nc(C)sc3c2)CC1	5%
C[C@@](N)(C(=O)O)c1ccc(C(=O)O)cc1	9%&6%&1%
O=C(CCCn1c(=O)[nH]c2cc(Cl)ccc2c1=O)N1CCC2(CC1)OCCO2	16%
CC(C)NC(=O)CCNS(=O)(=O)c1ccc(Br)cc1	0%
CCOC(=O)N1CCN(c2ccc(C(=O)CC)cc2F)CC1	37%
CCN(C(=O)CCc1nc(-c2ccccc2F)no1)c1cc(OC)ccc1OC	87%

(next part)
Compound	AmpC nodet inh
CCN(CC)CCCN1C(=O)C(=O)/C(=C(/O)c2ccc(OC)c(Cl)c2)C1c1ccco1 (centres undefined)	-3%
O=C(Cn1nnc(-c2ccccc2F)n1)Nc1ccc2c(c1)OCO2	-16%
Cc1nnc(SCC(=O)NCc2ccco2)[nH]c1=O	-11%
c1ccc(COc2ccc(OCCn3cncn3)cc2)cc1	32%
Cc1cccc(/N=C/c2c(O)c3ccccc3oc2=O)n1	-3%
COC(=O)[C@H]1[C@H]2C[C@@H]3c4[nH]c5cc(OC)ccc5c4CCN3C[C@H]2C[C@@H](OC(=O)c2cc(OC)c(OC)c(OC)c2)[C@@H]1OC	140%
CC(n1cnnn1)C12CC3CC(CC(C3)C1)C2 (centres undefined)	22%
COc1ccc(C2C(C#N)=C(N)OC3=C2C(=O)CCC3)c(OC)c1OC (centres undefined)	0%
CSc1ccc(N2C(=O)NC3(CCCCC3)C2=O)cc1	-2%
O=C(Nc1ccccc1-c1ccccc1)NC1CCN(CC(=O)N2CCOCC2)CC1	35%
CCCCOc1ccc(C(=O)N2CCCCCC2)cc1	34%
Cc1cc(C(=O)CSc2nnc(-c3ccc(OC(F)F)cc3)o2)c(C)n1Cc1cccs1	-3%
COc1ccccc1Nc1nc2c(s1)CCC2	9%
COc1ccc(-c2ccc(-c3noc(-c4ccncc4)n3)c(OC)n2)cc1	17%
CCc1cc2c3c(c(=O)oc2cc1O)CCCC3	-1%
CCOc1ccc(OCc2ccc(C(=O)Nc3cccc(C)n3)o2)cc1	15%
CCC(=O)Nc1c(-c2cccs2)c(=O)c2ccccc2n1C	31%
COc1ccccc1NC(=O)CSc1nnnn1-c1ccc2c(c1)OCO2	-22%
CCNc1ncc2nc(-c3cccc(C#N)c3)c(=O)n(C)c2n1	5%
CN1C(=O)C(CC(=O)Nc2ccc3c(c2)Cc2ccccc2-3)N(C)C1=O (centres undefined)	91%
CCN(C(=O)Cn1c(=O)n2nc(CCn3nc(C)cc3C)nc2c2ccccc21)c1cccc(C)c1	138%
O=C(COC(=O)c1ccco1)Nc1ccccc1	-7%
Nc1nc2ccccc2n1CCN1CCCC1	-4%
CN1CCN(c2ncc3nc(-c4cccs4)c(=O)n(Cc4cccs4)c3n2)CC1	140%
O=C(O)Cn1ccnc1[N+](=O)[O-]	-5%[5.75 µM]

Next section:
Compound	AmpC nodet inh
COc1ccccc1-c1nnn(CC#N)n1	4%
O=C(COC(=O)CCC(=O)c1ccc(F)cc1)Nc1ccc(N2CCOCC2)cc1	28%
CCC(CC)c1nnc(NC(=O)c2c(-c3ccccc3)noc2C)s1	21%
COc1cccc(-n2c(COc3ccc(C)cc3)nnc2SCC(N)=O)c1	-10%
COc1ccc(C2NC(=O)NC(O)(C(F)(F)F)C2C(=O)c2ccc(C)cc2)cc1 (centres undefined)	56%
COc1ccc(-n2c(=O)c(-c3ccccc3)nc3cncnc32)cc1	12%
Cc1ccc(-n2ncc3c(=O)n(Cc4cccnc4)cnc32)cc1	7%
COc1ccc(N2C(=O)C3CCCN3C2c2cccc(OC)c2OC)cc1 (centres undefined)	54%
Cc1cc(Cl)ccc1O	4%
CN1C(=O)CS(=O)c2ccc(C(=O)NC3CC3)cc21 (centres undefined)	-5%
O=C(O)c1ccc(Cl)c(Cl)c1	-12%
COc1cccc(Nc2ncccc2C(=O)NCc2ccccc2)c1	4%
Cn1nc(SCC(=O)O)sc1=S	-4%
COC(=O)c1ccccc1NC(=O)COc1ccc(S(=O)(=O)N2CCCC2)cc1C	43%
O=C(Cn1cnc2ccccc21)OCC(=O)N1CCCc2ccccc21	43%
CCC[C@@H]1C[C@@]1(CCC)C(NP(=O)(c1ccccc1)c1ccccc1)c1ccc(Cl)cc1 (some centres undefined)	38%
COc1ccc(N(CC(=O)Nc2cccc(N(C)S(C)(=O)=O)c2)S(C)(=O)=O)cc1OC	10%
COC(=O)c1ccc(C(=O)OC)nc1	0%
CCC(=O)c1cn(CC(=O)NCC2CCCO2)c2ccccc12 (centres undefined)	13%
CCOc1ccccc1NC(=O)C1CCN(S(=O)(=O)c2c(C)nn(C)c2C)CC1	74%
N#Cc1ccc(CSc2nnc(-c3ccccn3)n2-c2ccc(Cl)cc2)cc1	91%
CCCCOc1ccc(-c2nnn(CCC(=O)N3CCOCC3)n2)cc1	112%
CCCCn1c(=N)n(CC(=O)C(C)(C)C)c2ccccc21	-3%
COC(=O)[C@@]1(Cc2ccc(OC)cc2)[C@H]2c3cc(C(=O)N4CCCC4)n(CCO)c3C[C@H]2CN1C(=O)c1ccccc1	160%
O=C(Nc1ccccc1N1CCCC1)c1cc2ccccc2o1	-3%

Going on with the list.
Compound	AmpC nodet inh
O=C(NCC(=O)N(c1cccnc1)C(C(=O)NCc1ccco1)c1ccccc1)c1ccco1 (centres undefined)	-9%
CCNS(=O)(=O)c1ccc(NC(=O)Nc2cccc(C(F)(F)F)c2)cc1	-19%
COc1ccc(S(=O)(=O)Cc2ccc(C(=O)NCc3cccs3)o2)cc1	4µM*[single pt active]
O=C(C(NS(=O)(=O)c1cccs1)c1ccccc1)N1CCN(c2ccccc2)CC1 (centres undefined)	-15%
Nc1ccc(S(=O)(=O)NCCS(=O)(=O)O)cc1	-1%[5.75 µM]
O=C(c1cccc(F)c1)N1CCC2(CC1)CCN(c1ccncc1)CC2	5%
Cc1cc2ccccc2n1CCNC(=O)C1CC1	10%
O=S(=O)(NCc1ccccc1Cl)c1cnc[nH]1	-8%
O=C(O)C(Cc1ccccc1)n1cccc1 (centres undefined)	-13%
O=C(c1cc(-c2cccs2)on1)N1CCOCC1	0%
Cc1onc(-c2ccccc2)c1C(=O)Nc1nnc(COc2ccc(Cl)cc2)s1	-19%
CCOC(=O)Nc1nnc(-c2ccc(OC)c(OC)c2)s1	20%
Cc1cc(C(F)(F)F)c2c(=O)[nH]c(=O)n(Cc3ccccc3)c2n1	-8%
COC(=O)C1=C(CN2CCSCC2)NC(=O)NC1c1cc(C)ccc1C (centres undefined)	25%
NC(=O)COc1ccc(=O)n(-c2ccccc2)n1	4µM*[single pt active]
COC(=O)C1C(=O)C2=C(CC1C)NC(C)=C(C(=O)OCCOc1ccccc1)C2c1ccc(C)o1 (centres undefined)	64%
Cc1ccc(-n2c(SCC(=O)N3CCOCC3)nnc2-c2ccncc2)cc1	22%
Cc1cc(OCC(=O)Nc2ccc3c(c2)OCCO3)ccc1Cl	5%
CC(C)n1c(NCc2cc(Cl)ccc2O)nc2ccccc21	-25%
Cc1ccnc(-n2c(CCN3C(=O)c4ccccc4C3=O)nc3ccccc3c2=O)c1	47%
COc1ccc(-n2c(N)c(C(=O)NCC3CCCO3)c3nc4ccccc4nc32)c(OC)c1 (centres undefined)	137%
COCC(=O)N1CCC[C@@]2(CCN(c3ccccn3)C2)C1	10%
CCOC(=O)N1CCC(N2CC34C=CC(O3)C(C(=O)Nc3ccc(C)cc3)C4C2=O)CC1 (centres undefined)	28%
Cc1ccccc1-n1nc(C)c2cc(C(=O)N3CCN(S(=O)(=O)c4ccc(F)cc4)CC3)sc21	26%
CC(NC(=O)c1cc2ccccc2o1)c1cccs1 (centres undefined)	-5%

6 records picked at random from those above, as already listed:
Compound	AmpC nodet inh
CCN(CC)CCCN1C(=O)C(=O)/C(=C(/O)c2ccc(OC)c(Cl)c2)C1c1ccco1 (centres undefined)	-3%
COc1ccc(N(CC(=O)Nc2cccc(N(C)S(C)(=O)=O)c2)S(C)(=O)=O)cc1OC	10%
COC(=O)c1ccccc1NC(=O)COc1ccc(S(=O)(=O)N2CCCC2)cc1C	43%
CN1CCN(c2ncc3nc(-c4cccs4)c(=O)n(Cc4cccs4)c3n2)CC1	140%
O=C(O)c1ccc(Cl)c(Cl)c1	-12%
CCCCOc1ccc(C(=O)N2CCCCCC2)cc1	34%

More results:
Compound	AmpC nodet inh
CCn1cc(C(=O)NC2CC3CCC2C3)c(=O)c2ccc(C)nc21 (centres undefined)	45%
Cc1cc2c(=O)n(CC(=O)N3CCN(c4ccccc4)CC3)cnc2s1	4%
O=C(O)CCCCCNc1nc(=S)[nH]c2ccccc12	-12%
CN1CCN(C(=O)c2ccc3c(=O)n(Cc4ccc(Cl)cc4)c(=S)[nH]c3c2)CC1	116%
COc1ccccc1CNC(=O)CCN1C(=O)COc2ccccc21	-10%
N#CC1=C(N)Oc2n[nH]c(CSc3ccccc3)c2C12C(=O)Nc1ccccc12 (centres undefined)	-9%
CCCCOC(=O)C1=C(C)Nc2ncnn2C1c1ccc(OCC)c(OC)c1 (centres undefined)	75%
CCOC(=O)c1cnc(SCC(=O)Nc2cc(C(F)(F)F)ccc2N2CCOCC2)nc1N	22%
CCC(C)C(NC(=O)OC(C)(C)C)C(=O)NC(C(=O)N1CCCC1C(N)=O)C(C)CC (centres undefined)	24%
Cc1cc(NC(=O)C2(c3ccccc3)CCCC2)no1	-1%
COC(=O)c1ccc(Cl)c(NC(=O)CN2CCN(Cc3ccccc3)CC2)c1	87%
O=C(Nc1ccc(Cl)cc1)C(c1ccccc1)N(CCO)CCO (centres undefined)	12%
CCCCNC(=O)C(c1ccc(OCC(=O)OC)c(C(=O)OC)c1)N(CCc1ccccc1)C(=O)CCCCCN1C(=O)NC(c2ccc(-c3ccccc3)cc2)C(C(=O)OCc2ccccc2)=C1C (centres undefined)	28%
Cc1ccc(C(=O)COC(=O)c2cnccn2)cc1	-5%
CC(C)C[C@@H](CC(=O)N[C@@H](CCC(=O)O)CC(=O)O)NC(=O)[C@@H]1CCCC[C@H]1NC(=O)C[C@H](CCCN)NC(=O)C[C@H](CO)NC(=O)[C@@H]1CNCC[C@H]1N	93%
C[C@@H](CN1CCC(Cc2ccccc2)CC1)[C@H](O)c1ccc(O)cc1	-11%
CCCCCC1CC(=O)N(Cc2ccccc2)C(=O)N1 (centres undefined)	-5%
Fc1c(F)c(F)c(CSc2nc3ccccc3[nH]2)c(F)c1F	-12%
O=C(CN1CCN(CC(=O)c2ccc(F)cc2)CC1)Nc1ccccc1Cl	126%
Cn1c(=O)c2c(SCC(=O)N3CCC(Cc4ccccc4)CC3)nc(C3CC3)nc2n(C)c1=O	16%
Cc1nc(CCNC(=O)Cc2ccccc2)cs1	-6%
Cc1cc(-c2ccco2)n(-c2ccccc2)n1	8%
COc1cc2c(cc1OC)C(c1ccc(N(C)C)cc1)CC(=O)N2 (centres undefined)	10%
Cc1ccc(CNC(=O)[C@H](C)[C@H]2C[C@]2(C)[C@H](NC(=O)OCc2ccccc2)c2ccccc2)c(F)c1F	0%
CCOC(=O)CSc1nnc(Cc2ccccc2)n1CC1CCCO1 (centres undefined)	5%
CCOc1ccc(N=Cc2c(O)cc(C)oc2=O)cc1	-4%

Given with each value named: part of the list above
Compound: CCOC(=O)N1CCN(C(=O)Nc2ccc3nc(C)sc3c2)CC1
- AmpC nodet inh = 5%

Compound: C[C@@](N)(C(=O)O)c1ccc(C(=O)O)cc1
- AmpC nodet inh = 9%&6%&1%

Compound: O=C(CCCn1c(=O)[nH]c2cc(Cl)ccc2c1=O)N1CCC2(CC1)OCCO2
- AmpC nodet inh = 16%

Compound: CC(C)NC(=O)CCNS(=O)(=O)c1ccc(Br)cc1
- AmpC nodet inh = 0%
